# PINK1 expr mod – PINK1 expression modulation; PINK1 immunofluorescence, high-content cytometry, 24 h; Potency, µM (top dose mostly 76.6 µM), for the others: top-dose activation (PINK1 increase), actives largely listed as activators; 410,000 compounds, 0.2% hits; AID 624263; active = well fitted activation curve with a large enough effect; inconclusive = small, poorly fitted or top-dose-only effect; inactive = flat fitted curve, though single readings scatter; cell line not stated here;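 also: potency is read from the fitted curve at half-maximal effect; % of control where 0% means no effect; nearly all actives have a fitted effect of over 65% in size; a mitochondrial uncoupler was the plate control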
#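 Stable cell line treated 24 h with compounds at 5 concentrations (CCCP controls), then fixed and immunostained for PINK1 plus nuclear and cell stains; PINK1 immunofluorescence quantified by laser-scanning microplate cytometry.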
# gsp antagonist – antagonists of gsp mutant (McCune-Albright syndrome); gsp-mutant cells, cAMP HTRF, 30 min; control for the full effect not named in the record; Potency, µM (doses to about 76.9 µM), for inactives: top-dose activity change, negative = inhibition, actives largely listed as inhibitors; 340,000 compounds, 0.4% hits; AID 624288; active = falling curve of any shape with a large fitted effect; inconclusive = falling curve, mostly with a smaller effect; inactive = flat or rising curve; cell line not stated here;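 also: intracellular cAMP measured with PDE inhibitor Ro 20-1724 present during compound exposure; potency is read from the fitted curve at half-maximal effect; % is scaled to controls: 0 for no effect and ±100 for the full control effect; nearly all actives have a fitted effect of over 65% in size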
#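 HTRF cAMP measurement after 30 min RT detection following 30 min, 37C compound treatment alongside […] (added as 300 uM solution) in G418-selected cells seeded at 2000/well and grown 16–24 h.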
# Menin MLL FP FL – inhibitors of human menin-MLL interaction, wild-type MLL peptide; Fluorescence polarization, fluorescein-MLL peptide displacement from menin; FP activity change, % at 61.4 µM; 290,000 tested, under 10 active; AID 1766; inconclusive = falling polarisation curve, or a change in total fluorescence; inactive = total fluorescence flat and polarisation flat or rising; no compound was filed as active; the % refers to the polarisation; negative = inhibition;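 also: % of control where 0% means no effect; inhibitors lower the polarisation; unlabelled MLL peptide was the positive control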
# Sfp PPTase inh – blocks B. subtilis Sfp PPTase activity. Potency, µM, for the others: max response, negative = inhibition, usual class: inhibitors. Biochemical Sfp PPTase activity, qHTS. AID 1490. 310,000 compounds, 3.5% hits. Q9F4F7; active = well fitted inhibition curve with a large enough effect; inconclusive = small, poorly fitted or top-dose-only effect, or another doubt; inactive = no such curve, though single readings can be large or run the other way;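 also: the enzyme is Sfp with the accession as filed and its product quenches rhodamine fluorescence; potency is read from the fitted curve at half-maximal effect; 0% = enzyme reaction without inhibitor and -100% = no enzyme wells; top concentration of the series not given in the record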
#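 Reaction rates are the 30-min fluorescence difference (ex 525, em 598 nm) in wells containing 15 nM Sfp, 5 uM rhodamine-CoA and 12.5 uM BHQ-2-YbbR at pH 7.6 with 10 mM MgCl2.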
# gsp ag – activates gsp, the McCune-Albright syndrome mutation. gsp mutant cells, cAMP HTRF, 30 min; control for the full effect not named in the record. Potency, µM (titrated, usually from 76.9 µM), inactives show top-dose activation (cAMP increase), most hits filed as activators. 340,000 compounds, 0.13% hits; active = well fitted activation curve with a large enough effect; inconclusive = small, poorly fitted or top-dose-only effect, or another doubt; inactive = no such curve, though single readings can be large or run the other way; cell line not stated here;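 also: phosphodiesterase inhibitor Ro 20-1724 added with compounds to block cAMP breakdown; potency is read from the fitted curve at half-maximal effect; nearly all actives have a fitted effect of over 60% in size; about a fifth of the inactives were tested at one dose only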
#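 Cells in DMEM/10% FBS with G418 were pretreated with compounds in DMSO plus […] (300 uM stock) for 30 min at 37C. cAMP was measured by HTRF (cAMP-d2 plus anti-cAMP antibody-K) after 30 min at room temperature.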
# ClpP mod – qHTS Assay for Activators of ClpP | ATP-dependent Clp protease proteolytic subunit (Bacillus subtilis (strain 168)), P80244 | purified B. subtilis ClpP, FRET peptide cleavage, 20 min | Potency, µM (titrated, usually from 57.5 µM), for the others: top-dose activity change, negative = active | 340,000 compounds, 1.9% hits; active = well fitted falling curve with a large enough effect; inconclusive = small, poorly fitted or top-dose-only effect; inactive = no such curve, though single readings can be large or run the other way; also: potency is read from the fitted curve at half-maximal effect; the source files actives as falling curves though it sought activators and does not explain the sign; nearly all actives have a fitted effect of over 65% in size; many hits overshoot -100%
# Target sequence (P80244 whole entry, looked up): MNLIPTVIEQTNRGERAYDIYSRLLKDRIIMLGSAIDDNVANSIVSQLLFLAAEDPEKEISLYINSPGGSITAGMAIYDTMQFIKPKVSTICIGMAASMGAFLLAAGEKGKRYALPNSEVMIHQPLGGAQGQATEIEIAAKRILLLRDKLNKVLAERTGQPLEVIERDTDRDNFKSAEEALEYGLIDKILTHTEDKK
#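 Buffer: 100 mM Tris/HCl pH8, 100 mM KCl, 0.05% low protease BSA, 2.5% glycerol, 0.01% Tween-20. ClpP 10 microg/mL final; 20 min RT; delta FRET normalized to ADEP and DMSO controls.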
# D2 agonist – human D2 receptor agonism in beta-arrestin assay; P14416; DiscoveRx PathHunter D2 beta-arrestin, luminescence, 90 min; 100% = 57 uM dopamine signal; activation, % (test concentration not listed); 360,000 compounds, 0.084% hits; AID 624465; in the data active = activation above about 40%; inconclusive = about 15% to 40%; inactive = below about 15%; also: compound concentration not given in the record; the text of the record calls up to 30% inactive
# Target sequence (P14416 whole entry, looked up): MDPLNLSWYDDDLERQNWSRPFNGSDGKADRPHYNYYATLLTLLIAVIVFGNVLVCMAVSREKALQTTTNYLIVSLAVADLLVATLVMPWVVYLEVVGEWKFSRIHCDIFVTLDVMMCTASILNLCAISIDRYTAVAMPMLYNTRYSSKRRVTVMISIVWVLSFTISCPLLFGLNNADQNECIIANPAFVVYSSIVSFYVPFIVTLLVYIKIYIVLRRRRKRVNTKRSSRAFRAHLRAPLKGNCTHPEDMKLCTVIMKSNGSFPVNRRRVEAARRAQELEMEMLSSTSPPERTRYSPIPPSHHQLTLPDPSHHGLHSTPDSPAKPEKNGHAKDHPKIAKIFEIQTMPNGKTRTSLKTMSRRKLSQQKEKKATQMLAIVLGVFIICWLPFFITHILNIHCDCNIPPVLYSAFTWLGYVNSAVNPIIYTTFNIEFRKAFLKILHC
#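 DiscoveRx PathHunter D2 beta-arrestin cells (2,100/well) attached overnight, then compound-stimulated 90 min at 37 C in HBSS/10 mM HEPES/0.1% Tween-20 buffer; beta-galactosidase complementation read by luminescence after 1 h at ambient temperature. Dopamine 57 uM final (EC100) as control.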
# * hit, by the source's call; ? = inconclusive; · = not tested or not shown; & = joins results of further samples; [ ] = dose if it differs, or a comment.
SMILES,PINK1 expr mod,gsp antagonist,Menin MLL FP FL,Sfp PPTase inh,gsp ag,ClpP mod,D2 agonist
C=C(C)c1cccc(C(C)(C)NC(=O)N2CCCC(C)C2)c1 (configuration not stated),-1.1%,-10%,-3.4,12%,-9%,1.3%,-5.2
C[C@H](CO)N1C[C@H](C)[C@@H](CN(C)S(C)(=O)=O)Oc2ccc(NC(=O)Cn3cnnn3)cc2C1=O,1.3%,16%,·,·,·,1.5%,0.5
Cc1ccc(-n2nc3c(=O)n(CC(=O)NCc4ccccc4Cl)nc(C)c3c2C)cc1,4.6%,13%,·,11%,0%,0.3%,-3.6
COc1ccc(C(=O)Nc2nc(C)cc(C)n2)cc1,1.0%,3%,7.0,-9%,0%[15.4 µM],1.1%,-3.2
C#CCOCCOCCOCCNc1nc(N2CCN(C(=O)[C@H](CCCCN)n3cc(CN)nn3)CC2)nc(N2CCN(C(=O)[C@H](CC(N)=O)n3cc(C(N)[C@H](C)CC)nn3)CC2)n1 (some centres not stated),2.0%,10%,·,·,23%,0.9%,-6.0
Cc1cccc(OCc2nnc(SCC(=O)Nc3cccc(C(=O)N4CCOCC4)c3)n2C)c1C,0.7%,1%,-0.3,-2%,-17%,1.9%,0.7
CC1=NN(c2ccc(Cl)cc2)C(=O)/C1=C\c1cccn1-c1ccc(S(N)(=O)=O)cc1,11%,?,-1.1,0%,18%,-2.6%,-1.7
Cc1nn(C)cc1CN(C)C(=O)c1cc(-c2ccccc2)nc2ccc(Br)cc12,-1.9%&-0.2%,4%,1.2,-19%,25µM*,-0.1%,3.4
O=C(NNC(=S)Nc1ccc(F)cc1)C1[C@H]2CCCC[C@@H]12 (some centres not stated),3.0%,0%,-2.4,14%,1%,·,-0.5
O=[N+]([O-])c1ccccc1CN1CCN(Cc2c[nH]c3ccccc23)CC1,2.2%,5%,-3.3,?,6%,·,-3.2
O=C(COc1ccc([N+](=O)[O-])cc1Cl)Nc1ccc2[nH]c(=O)[nH]c2c1,9.6%,-10%,·,·,-47%[inhibitor],·,-4.1
O=C(COc1ncnc2ccccc12)Nc1ccc(Cl)c([N+](=O)[O-])c1,-1.3%,-19%,0.5,-3%,-23%,·,-7.1
S=C(NCCN1CCOCC1)N/N=C/c1ccccc1,2.1%,14%,-1.6,-14%,0%,-0.1%,0.5
CCOC(=O)C1(CCOc2ccccc2)CCN(Cc2ccc(OC)c(COC)c2)CC1,8.9%,-5%,0.3,13%,-3%[15.4 µM],-12%,-2.7
Cc1cc(NC(=O)Nc2cc(C)nn2-c2ccccc2)n(-c2ccccc2)n1,-0.7%,4%,-0.7,17%,4%,0.4%,-1.9
Cc1csc(SCC(=O)Nc2ccccc2C)n1,1.1%,7%,·,·,-5%,1.8%,-3.6
Oc1cccc(/C=N/Nc2ccc(Cl)nn2)c1O,7.7%,1%,-8.2,-25%,?,-0.8%,-3.5
C=CCn1c(SC(C)C(N)=O)nc2sc(CC)cc2c1=O (configuration not stated),-0.3%,5%,6.1,24%,16%[15.4 µM],·,-5.7
CC(C)(C)c1ccccc1NC(=O)c1cccnc1,7.3%[38.3 µM],10%,3.8,14%,-7%,-0.2%,-1.7
C=CCc1ccccc1OCC(O)CNC(C)C (configuration not stated),0.9%&0.2%,-4%,3.4&1.6&0.3&0.1&0.0,7%&-8%&27%&0%,·,-1.7%,-6.1
COc1ccccc1NC(=O)c1cc(C(=O)Nc2ccccc2OC)cc([N+](=O)[O-])c1,2.8%,15%,4.9,9%,11%,0.0%,7.5
CC1(NC(=O)Cc2csc(-c3cccc(Cl)c3)n2)CCS(=O)(=O)C1 (configuration not stated),3.5%,-1%,·,·,22%,-4.8%,-0.4
CC(C)Nc1ncnc2c1ncn2[C@H]1CN(Cc2ccccc2)C[C@@H](CO)O1,1.2%,·,·,·,·,0.5%,-1.3
Cc1cc(S(=O)(=O)N2CCN=C2c2ccccc2)c(Cl)cc1Cl,1.1%,-7%,-0.2,16%,-25%,0.1%,-0.7
Cc1ccccc1OCCSc1nnc(-c2ccncc2)n1C,4.6%[38.3 µM],2%,1.8,7%,-38%,-0.4%,-0.1
COc1ccccc1N1CCN(S(=O)(=O)CCNC(=O)CC2CCCC2)CC1,0.9%,·,·,·,-83%[inhibitor],-1.5%,-0.2
COc1ccc(Cc2c(-c3ccc(C)cc3)nc3cc(C)c(Br)c(C)n23)c(C)c1,4.0%,·,·,·,·,-1.8%,-3.3
CCCc1ccc(-c2c(C)sc(NC(=O)c3ccnn3C)c2C#N)cc1,11%,20µM*,1.5,6%,-41%[inhibitor],0.0%,3.1
CC1CCCN(S(=O)(=O)c2ccc3c(c2)C(C)(C)C(=O)N3C)C1 (configuration not stated),1.7%,-2%,-3.2,-4%,-61%[inhibitor],-1.7%,2.1
CCc1cccc(C)c1NC(=O)COC(=O)CSCc1ccccc1,2.0%,4%,·,·,-37%,-2.3%,-2.1
O=C(Nc1cc(S(=O)(=O)N2CCOCC2)ccc1N1CCOCC1)C1CCCO1 (configuration not stated),7.7%,5%,0.9,27%,12%,-1.3%,-5.1
Cc1c(C(=O)O)cccc1-n1c(C)cc(C=O)c1C,2.8%,6%,-1.1,7%,-6%,0.2%,-3.1
Cc1ccc(CSCC(=O)Nc2ccccc2F)cc1,0.8%,-2%,-6.5,-3%,?,-0.4%,0.3
Cc1c(OCc2nn[nH]n2)ccc2c(-c3ccccc3)cc(=O)oc12,-0.2%,-19%,2.2,-9%,-8%,-27%,-2.1
Cc1ccc(C(=O)N/C(=C/c2ccco2)C(=O)N2CCC(C)CC2)cc1,-0.1%,-6%,?,56µM*,-6%[15.4 µM],·,0.1
COc1ccc(NC(=O)CCC(=O)N(Cc2ccc(OC)c(OC)c2)c2nccs2)c(OC)c1,4.0%,-13%,-0.3,19%,-15%[15.4 µM],·,-4.5
Cc1cc(C)nc(NC(=O)c2cccc([N+](=O)[O-])c2C)n1,-1.2%,-1%,-4.6,10%,?,?,-0.5
CC(C)Cn1c(N)c(C(=O)CSc2n[nH]c(N)n2)c(=O)n(C)c1=O,1.4%,-1%,·,·,?,0.6%,0.9
COc1ccc(CN(C(=O)/C=C/c2ccco2)C2CCS(=O)(=O)C2)cc1 (configuration not stated),0.3%,-5%,?,14µM*,-3%[15.4 µM],·,-2.8
CCSc1nnc(N(CCC(=O)O)CCC(=O)O)s1,0.4%,16%,1.6,7%,-5%,0.6%,2.3
O=C(CCNC(=O)c1ccc(Br)cc1)NCC1COc2ccccc2O1 (configuration not stated),1.4%,-25%,5.8,12%,?,1.2%,-2.8
CC(C#N)(NC(=O)CN1CCN(S(=O)(=O)c2ccccc2Cl)CC1)C1CC1 (configuration not stated),1.1%,15%,·,·,?,2.3%,2.9
CC1(C)CN(C(=S)Nc2ccc(F)cc2F)C1=O,0.9%,1%,-2.4,-5%,?,-1.2%,-2.1
Nc1cccnc1Sc1cc(Cl)cc(Cl)c1,15%,-2%,-1.8,3%,?,-5.7%,0.4
CCN(CC)S(=O)(=O)c1ccc(N2CCN(C)CC2)c(NC(=O)Nc2ccc(C)cc2)c1,5.2%,-4%,?,?,15%,·,1.8
COc1ccc(CNc2ccc(Br)cc2)cc1,3.1%,-2%,-0.7,56µM*,-16%,-3.2%,1.5
CSc1nc(N)c2c(C)c(C)sc2n1,-1.7%,4%,·,12%,?,-1.2%,-4.4
CC(C)(C)c1ccccc1NC(=O)Cn1c(=O)cnc2ccccc21,0.9%,9%,2.7,15%,2%,·,-0.3
COc1cc(C)nc(Oc2ccc(=O)n(C)n2)n1,1.5%,6%,4.1,21%,3%,-4.2%,1.1
CC(=O)NCCNC(=O)C1(C)Cc2c(-c3ccc(NC(C)=O)cc3)ccnc2O1 (configuration not stated),0.0%,·,·,·,·,4.2%,-5.0
COc1ccc(C2=CC(c3sccc3C)n3nnnc3N2)cc1 (configuration not stated),0.6%,11%,?,50µM*,-30%[inhibitor],-15%,-5.1
COc1ccccc1C(=O)OCC(=O)c1ccc(CNC(C)=O)s1,-0.4%,-9%,·,·,27%,-0.8%,-2.1
CC(C)C[C@@H](COCc1cccc(Cl)c1)N1CCN(C(=O)c2cccc(C(F)(F)F)c2)CCC1=O,3.5%,·,1.7,11%,·,-2.7%,·
O=C(COc1cc(F)ccc1[N+](=O)[O-])Nc1ccc2c(c1)OCO2,3.2%,6%,·,·,2%,1.8%,-0.8
NC(=O)C1CCN(Cc2nc3ccccc3c(=O)[nH]2)CC1,-1.6%,16%,1.6,0%,-33%[inhibitor],-1.8%,0.0
O=C(CCn1cccn1)Nc1ccc(-c2ccno2)cc1,0.3%,3%,-10,12%,-7%,-1.0%,2.0
O=C(Nc1ccccc1N1CCOCC1)c1ccccc1NS(=O)(=O)c1ccc(F)cc1,1.8%,-8%,0.2,11%,5%[15.4 µM],-1.0%,0.3
CN(CC(=O)Nc1ccncc1)S(=O)(=O)c1ccc(Br)cc1,-4.0%[38.3 µM],?,1.6,13%,2%,-2.8%,-0.6
CC(C)(C)C(=O)C1=C(O)C(=O)N(c2ccccc2)C1c1ccccc1 (configuration not stated),0.0%,-11%,1.3,20%,?,-2.3%,-3.7
CN1C(=O)[C@H]2[C@@H](c3ccccc3)N[C@]3(CCCN(Cc4ccc(F)cc4)C3=O)[C@H]2C1=O,1.4%,·,·,·,0%,-0.3%,-1.6
CC12C(=O)N(c3ccccc3C(=O)O)C(=O)C1C1C=CC2C1 (configuration not stated),-0.2%,0%,9.8,9%,-15%,-1.9%,-0.9
CN(C)CCNC(=S)Nc1ccccc1C(C)(C)C,-0.7%,16%,-2.6,12%,-7%[15.4 µM],0.2%,-6.7

# Source: PubChem BioAssay
